Compound activity as filed in PubChem.
HPGD block: qHTS Assay for Inhibitors of HPGD (15-Hydroxyprostaglandin Dehydrogenase) | purified HPGD, NADH fluorescence kinetic, PGE2 substrate | Potency, µM, without a hit: at the top dose activity change, negative = inhibition, actives largely listed as inhibitors | 150,000 tested, 4.3% active; active = well fitted inhibition curve with a large enough effect (not every such curve was filed as active); inconclusive = small, poorly fitted or top-dose-only effect, or another doubt; inactive = no such curve, though single readings can be large or run the other way;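 also: top concentration of the series not given in the record; plate controls included wells without enzyme; inactives centre near -10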
Target sequence (P15428 whole entry, looked up): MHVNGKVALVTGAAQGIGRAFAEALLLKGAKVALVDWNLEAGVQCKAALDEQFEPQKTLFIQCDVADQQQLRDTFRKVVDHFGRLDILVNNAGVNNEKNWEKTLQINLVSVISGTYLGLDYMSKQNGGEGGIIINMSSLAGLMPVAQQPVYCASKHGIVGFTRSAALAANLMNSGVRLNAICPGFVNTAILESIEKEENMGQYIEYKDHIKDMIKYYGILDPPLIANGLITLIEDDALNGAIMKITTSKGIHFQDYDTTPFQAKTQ
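20 nM HPGD preincubated 15 min at room temperature with compound in 50 mM Tris-HCl pH 8, 0.01% Tween 20. Started with 1 mM NAD+ and 30 uM prostaglandin E2; NADH fluorescence (360/450 nm) read 5 times over 30-s intervals, last minus first.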
* marks the source's active call; other numbers are inactive results; ? = inconclusive; & = joins results of further samples; [ ] = dose if it differs, or a comment. % is scaled to controls: 0 for no effect and ±100 for the full control effect; potency is read from the fitted curve at half-maximal effect. A portion of the library (hit frequency here may not be typical).

molecule	HPGD block
Cn1c(=O)cc(OCC(=O)N2CCN(c3cccc(C(F)(F)F)c3)CC2)c2ccccc21	44.9%[activator]
Cc1nn(-c2ccccc2)c(N)c1C1(O)C(=O)N(C)c2ccccc21 (configuration not stated)	-3.9%
CCOC(=O)C1=C(C)NC(C)=C(C(=O)OCC)C1C(=O)OCC(=O)c1ccc2c(c1)OCCO2	?
O=C(NCCn1ccc2ccccc21)c1ccc2c(c1)OCO2	-12.6%
Cc1csc2nc(CCNS(=O)(=O)c3ccc4c(c3)OCCO4)cn12	-14.3%
Cc1ccccc1Oc1ncccc1C(=O)/C(C#N)=C/N(C)C	-20.6%
CCCCN1C(=O)c2ccc(C(=O)Nc3c(N)n(CCCC)c(=O)n(C)c3=O)cc2C1=O	2.1%
O=C(CCc1nc(-c2ccccc2F)no1)NC1CCCCCC1	28.2µM*
COc1ccc(NC(=S)NCc2ccco2)c(OC)c1	?
O=C(NC1CCCc2ccccc21)c1cccc(S(=O)(=O)N2CCN(c3ccccc3)CC2)c1 (configuration not stated)	-9.3%
CCCn1c(SCc2cc(=O)oc3ccc4ccccc4c23)n[nH]c1=O	-21.6%
N#CC1C(C#N)N2CCCN2C1c1ccc(Cl)cc1 (configuration not stated)	-4.5%
O=C(CCCN1C(=O)c2ccccc2C1=O)N1CCc2ccccc2C1	?
Cc1oc(-c2ccc(Cl)cc2)nc1CN1CCCC(C(=O)NCCCN2CCCC2=O)C1 (configuration not stated)	-3.7%
O=C(N/N=C/C(Cl)=C/c1ccccc1)c1cnccn1	?
COC(=O)c1ccccc1NC(=O)CC#N	-19.4%
c1ccc(CNc2nnnn2-c2ccccc2)cc1	-16.4%
N#Cc1cccc(NC(=O)N2CC[C@@]3(CCCN(C(=O)c4cnccn4)C3)C2)c1	-4.5%
COc1ccc(C2=CC3=C(Br)C(=O)C(C)(OC(=O)C4CCCC4)C(=O)C3=CO2)cc1 (configuration not stated)	-1.5%
CCN1C=C(Cc2ccc(OC)cc2)C2=C(C1)C(c1ccc(OC)cc1)C(C#N)=C(N)O2 (configuration not stated)	-19.9%
O=C(Nc1ccc(F)cc1)c1cnc(-c2ccccc2)nc1-c1ccccc1	-1.3%
CCCCOc1ccc(NC2=NC3(CCCCC3)N=C(N)N2)cc1	-19.1%
COc1ccc(C2NC(=O)c3sc4nc(C)c(C(C)=O)c(-c5ccc(Cl)cc5)c4c3N2)cc1 (configuration not stated)	?
COc1cccc(C(=O)Nc2ccc(NC(=O)C3CC3)cn2)c1	-11.4%
CC(=O)NC(CC(=O)NC12CC3CC(CC(C3)C1)C2)c1ccccc1 (configuration not stated)	-4.7%
CCCCCCC(=O)c1c(C)[nH]c(C(=O)OCC)c1C	-10.0%
O=C(CCSc1ccc(Cl)cc1)c1cccs1	20µM*
O=S(=O)(CCc1nc2ccccc2[nH]1)c1ccc(Cl)cc1	-1.7%
CCOc1ccc(C2C(C(=O)c3ccco3)=C(O)C(=O)N2Cc2cccnc2)cc1 (configuration not stated)	-0.9%
COc1ccc(CCNC(=O)C2CC(c3ccc([N+](=O)[O-])cc3)=NO2)cc1 (configuration not stated)	2.0%

molecule	HPGD block
CCOC(=O)CSc1nnc(CNc2nc(-c3ccccc3)cs2)n1C	-4.2%
COc1cccc(C(=O)Nc2cc(NC(=O)c3ccco3)ccc2OC)c1	3.3%
COC/C=C/C1=CC2=CC(=O)C(C)(O)C(=O)C2=CO1 (configuration not stated)	-3.8%
CCCCC(CC(C)O)c1n[nH]c(=S)n1-c1ccccc1 (configuration not stated)	-3.4%
C=CCc1c(C)nc(SC)nc1Nc1ccc(C(C)=O)cc1	-29.6%
O=C(CCn1c(=O)oc2ccccc21)N1CCc2ccccc21	?
Cc1ccc(C2NC(=S)NC3=C2C(=O)CC(C)(C)C3)cc1 (configuration not stated)	-19.3%
Nc1c2c(nc3sc4c(c13)CCCC4)CCCCCC2	-19.2%
O=C(O)c1cc(S(=O)(=O)Nc2cccc(Cl)c2)ccc1O	-18.5%
CC(=O)C1=C(C)OC(N)=C(C#N)C1c1ccncc1 (configuration not stated)	-12.5%
CN(C(=S)Nc1cccnc1)c1ccc(O)cc1	-8.4%
Cc1c(C(=O)OCC(=O)N2CC(C)OC(C)C2)oc2ccc(Br)cc12 (configuration not stated)	?
N#CC1=C(N)N(c2ccccc2)C2=C(C(=O)CCC2)C1c1ccsc1 (configuration not stated)	-2.4%
COC(=O)c1nonc1NCn1nnc2ccccc21	-7.9%
Cc1cc(C)cc(N2C(=O)CC(n3ccnc3)C2=O)c1 (configuration not stated)	-8.8%
O=C(O)CC1SC(=Nc2cccc(C(F)(F)F)c2)NC1=O (configuration not stated)	-5.2%
CCCCCC1CC(CC(=O)O)C(=O)O1 (configuration not stated)	-8.9%
Cc1nc(-c2ccc(O)c(O)c2)cs1	22.4µM*
COc1cc(O)cc(OC)c1OC	-6.1%
O=C(O)[C@@H]1CCCN1Cc1c[nH]c2ccccc12	-0.1%
O=C(c1cnccn1)N1CCC2(CC1)CCN(C(c1ccccc1)c1ccccc1)CC2	-3.2%
Cc1cccc(NS(=O)(=O)c2cc(C(=O)OCC(=O)Nc3cc(C)on3)ccc2C)c1	-2.9%
Cc1cc(NC(=O)CSc2ccccc2)no1	-8.0%
Cc1ccc(C)c(NC(=S)N(CCc2nc3cc(C)c(C)cc3[nH]2)Cc2cccnc2)c1	-2.9%
CS(=O)(=O)N1CCN(c2nnc(-c3ccccc3)c3ccccc23)CC1	-11.5%
CCOc1cc(/C=C2\SC(=N)N(c3nccs3)C2=O)ccc1OCCN1CCOCC1	-8.6%
COc1ccc(OC)c(S(=O)(=O)Nc2cccc(F)c2)c1	-3.8%
CCNC(=O)NC(=O)C(C)Sc1ccc2c(c1)OCCO2 (configuration not stated)	-3.6%
COc1ccccc1CC(=O)NCCc1ccc(S(N)(=O)=O)cc1	-17.4%
O=C(CC(=O)Nc1ccccn1)Nc1ccccn1	-10.0%

molecule	HPGD block
O=C(O)CCN1C(=O)c2ccc(NC(=O)CSCc3ccccc3)cc2C1=O	-17.3%
CCC(=O)Nc1ccc(NC(=O)c2cc3ccccc3o2)cc1	-13.1%
CCCS(=O)(=O)N1CCC(C(=O)NCCCN2CCC(Cc3ccccc3)CC2)CC1	-2.8%
CC(=O)COC(=O)CNC(=O)c1ccc(Br)cc1	-11.9%
COc1cc2oc3ccccc3c2cc1N(CC(=O)N1CCCCC1)S(=O)(=O)c1ccc(C)cc1	22.8%
CCOc1ccc2[nH]c(=O)c(C(c3nnnn3CCOC)N3CCOCC3)cc2c1 (configuration not stated)	?
COC(=O)c1ccc(C(=O)OCc2nc3cc4ccccc4cc3[nH]2)cc1	-1.2%
Cc1ccn2c(NC3CCCCC3)c(C(C)C)nc2c1	-15.4%
CCOC(=O)COc1ccc(S(=O)(=O)NCc2ccco2)cc1	-3.1%
CN1C(=O)C2CN(CCc3ccccc3)CNC2N(C)C1=O (configuration not stated)	-12.9%
CCCc1c(C)c(C#N)c2nc3ccccc3n2c1NCCCN1CCOCC1	-8.1%
CCOC(=O)c1cnc2ccc(OCC)cc2c1N1CCN(c2ccccc2OC)CC1	-10.0%
CC1(C)Cc2cccc(OCC(=O)N3CCN(c4ccccc4)CC3)c2O1	3.1%
c1ccc(-n2nnnc2NC2CCCCC2)cc1	-20.3%
O=C(COC(=O)c1cccnc1)c1ccc(Cl)c(Cl)c1	?
COc1ccc(NC(=O)CN2CCC(C(N)=O)CC2)cc1	-10.0%
O=C(Cc1cn2ccsc2n1)Nc1cccc2cnccc12	-11.7%
O=C(Nc1cccc2ccccc12)/C(=C/c1cccc([N+](=O)[O-])c1)NC(=O)c1cccs1	-7.9%
COc1ccc(OC)c(NC(=O)CSc2nc3ccccc3c(=O)n2CCNC(C)=O)c1	-21.4%
COc1ccc(N(C)S(=O)(=O)c2ccc3c(c2)CCC(=O)N3)cc1	-12.3%
CC1=C(C(=O)Nc2ccccc2)C(c2ccc(C)o2)n2ncnc2N1 (configuration not stated)	-6.6%
CCN(c1ccccc1)S(=O)(=O)c1ccc(Oc2ccc(-n3ccnc3)cc2)nc1	?
CCOC(=O)c1c(NC(=O)c2ccco2)sc2c1CCCC2	?
O=C(CSc1nc(-c2ccc(F)cc2)cc(C(F)(F)F)n1)NCc1ccco1	-12.5%
O=C(Nc1cccc(F)c1)c1ccc2c(c1)OCO2	?
c1ccc(-c2nnc(CSc3nc4ccccc4[nH]3)o2)cc1	28.2µM*
Cc1ccc(NC(=O)Nc2ccccc2C(=O)NCc2ccccc2)cc1	-2.8%
COc1ccccc1CNc1nc2nc(C)cc(=O)n2[nH]1	-12.7%
O=C(Cc1nc2ccccc2s1)c1ccc(O)cc1O	-13.6%
COCCNC(=O)CSc1nc2cc(OC)c(OC)cc2c(=O)n1Cc1ccc(OC)cc1	-12.6%

molecule	HPGD block
CC(=O)Nc1cccc(NC(=O)c2c(-c3ccccc3Cl)noc2C)c1	-3.6%
c1ccc2c(c1)nc(CN1CCOCC1)n1c3ccccc3nc21	?
Cc1cc2cc(CNC(=O)c3cccs3)ccc2n1C	2.82µM*
Cc1cc2cc(C)c3nnc(SCC(=O)NCc4ccco4)n3c2cc1C	-6.6%
CCN(CC)c1cc(C)c2cc(NC(=O)CNC(C)=O)ccc2n1	?
CCOc1ccc(CNC(=O)NS(=O)(=O)c2ccc(OC)cc2)cc1	-5.1%
O=C(O)C1CSC(c2ccccc2)N1C(=O)c1ccco1 (configuration not stated)	-4.7%
CN(NC(=O)c1ccc(Cl)cc1)c1cccc(Cl)n1	-14.7%
Cc1ccc(OCc2nnc(SCc3nc4ccccc4[nH]3)n2Cc2ccco2)cc1	-1.2%
O=C1C=C(NCc2ccncc2)CC(c2ccccc2)C1 (configuration not stated)	-4.4%
CN(C)C(=O)CSc1nnc(Cc2ccccc2)n1Cc1ccco1	-6.6%
COc1cc(/C=C(/NC(=O)c2ccc(Cl)cc2Cl)C(=O)O)cc(OC)c1OC	-5.9%
Cc1ccc(N/N=C2/CCCNC2=O)cc1	-14.5%
Cc1ccc(C(C(=O)NC2CCCC2)N(Cc2cccs2)C(=O)CNC(=O)c2cccs2)o1 (configuration not stated)	-9.4%
CN1[C@@H]2CC[C@H]1CC(OC(=O)[C@@H](CO)c1ccccc1)C2 (some centres not stated)	-4.6%&-2.5%
O=C(c1cnn2ccccc12)N1CCN(C2CCCCC2)CC1	-18.5%
CC(=O)[C@@H]1[C@@H]2C(=O)N(Cc3ccccc3)C(=O)[C@@H]2C2c3ccccc3C=CN21 (some centres not stated)	?
O=C(O)c1cc(-c2ccc(N3CCOCC3)cc2)nn1-c1ccc(F)cc1	-6.5%
CC(=O)OCCCNc1cc(Sc2ccc(C)cc2)c2nonc2c1[N+](=O)[O-]	-22.0%
CN1CCC2(CC1)Nc1nc(SCc3ccc(Cl)cc3)nn1C1=C2CN(C)CC1	-11.1%
O=C(CSc1nncs1)NCc1ccc2c(c1)OCO2	-1.4%
CN1CCN(C2=Cc3ccccc3Sc3cc(F)ccc32)CC1	?
CC1(C)Cc2c(c(=S)nc(-c3ccccc3)n2CCCN2CCOCC2)CO1	-18.2%
CN1c2ccccc2C(C)(C)C12CC(CCl)=NO2 (configuration not stated)	-28.2%
Cn1nc(-c2ccccc2)c(CSc2ccccc2Cl)c1Cl	-4.8%
COc1ccc(CCn2c(C)cc3c(c2=O)C(c2ccc4c(c2)OCO4)C(C#N)=C(N)O3)cc1OC (configuration not stated)	-5.9%
Cc1ccccc1CSc1nc2ccccc2c(=O)[nH]1	1.58µM*
Cc1ccc(C2C(C#N)=C(N)SC(N)=C2C#N)o1	?
CCOC(=O)c1nnc(-c2cccs2)nc1Oc1ccccc1C(=O)OC	-20.4%
Cc1ccc(NC(=O)C2Cc3ccccc3CN2C(=O)c2ccccc2)cc1Cl (configuration not stated)	-2.5%

Reformatted: entries from further up.
HPGD block	SMILES
-28.2%	CN1c2ccccc2C(C)(C)C12CC(CCl)=NO2 (configuration not stated)
?	CC(=O)[C@@H]1[C@@H]2C(=O)N(Cc3ccccc3)C(=O)[C@@H]2C2c3ccccc3C=CN21 (some centres not stated)
-3.6%	CC(=O)Nc1cccc(NC(=O)c2c(-c3ccccc3Cl)noc2C)c1
-5.1%	CCOc1ccc(CNC(=O)NS(=O)(=O)c2ccc(OC)cc2)cc1

Additional compounds:
molecule	HPGD block
CC(C)OC(=O)CSc1nc2ncccc2[nH]1	1.3%
CCCc1cc(C(=O)Nc2ccccc2C(=O)OC)no1	-8.1%
Cc1ccc(Nc2nnc(SCC(=O)Nc3ccccc3[N+](=O)[O-])s2)cc1	-11.9%
CC(=O)c1ccc(OC(C)C)c(Cc2c(O)nc(N)[nH]c2=O)c1	-10.3%
Cc1[nH]n(-c2ccccc2)c(=O)c1-c1ccc(Cl)cc1	-8.1%
COc1cc(CNCc2ccc(OC)c(OC)c2OC)cc(OC)c1	-5.3%
O=C1c2ccccc2NC(c2ccncc2)N1c1ccccn1 (configuration not stated)	?
CCOC(=O)c1c(NC(=O)c2ccco2)sc(C(=O)N2CCCC2)c1C	14.1µM*
CCOC(=O)c1sc(=S)n(-c2ccccc2Cl)c1SC	17.8µM*
CCC(NC(=O)NCc1ccccc1)(C(F)(F)F)C(F)(F)F	-12.8%
COCCn1c(=NC(=O)CSC(C)=O)sc2cc(F)ccc21	-14.8%
